ALR inh: inhibitors of human sulfhydryl oxidase ALR; P55789; purified ALR, DTT oxidation, H2O2 HRP-luminol luminescence; inhibition, % (no concentration beside the values); hit rate 3.8% among 290,000; AID 485317;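 active = mean and each replicate at 75% or more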;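 also: stock transfer was 7.5 nL into about 7.5 µL; 0% = neutral wells and 100% = wells with inactivated enzyme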
Target sequence (P55789 whole entry, looked up): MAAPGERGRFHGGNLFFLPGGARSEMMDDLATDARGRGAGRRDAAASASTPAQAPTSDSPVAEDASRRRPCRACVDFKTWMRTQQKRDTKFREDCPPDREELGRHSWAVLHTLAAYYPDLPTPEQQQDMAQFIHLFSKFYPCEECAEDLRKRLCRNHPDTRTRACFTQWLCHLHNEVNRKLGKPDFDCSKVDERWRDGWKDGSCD
B2AR ag: activates human beta-2 adrenergic receptor causing internalization. P07550. hit rate 0.43% among 340,000. Am2.2-beta2AR cells, FAP receptor internalization, flow cytometry; reference of the scale not given here. response, % (concentration not given with the values);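 active = response above a set limit, near 3 SD of response in nonfluorescent compounds, cut at about 42% in these data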;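 also: stock transfer was 100 nL into about 11 µL; a reference agonist was the positive control; negative values mostly stem from fluorescent compounds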
Target sequence (P07550 whole entry, looked up): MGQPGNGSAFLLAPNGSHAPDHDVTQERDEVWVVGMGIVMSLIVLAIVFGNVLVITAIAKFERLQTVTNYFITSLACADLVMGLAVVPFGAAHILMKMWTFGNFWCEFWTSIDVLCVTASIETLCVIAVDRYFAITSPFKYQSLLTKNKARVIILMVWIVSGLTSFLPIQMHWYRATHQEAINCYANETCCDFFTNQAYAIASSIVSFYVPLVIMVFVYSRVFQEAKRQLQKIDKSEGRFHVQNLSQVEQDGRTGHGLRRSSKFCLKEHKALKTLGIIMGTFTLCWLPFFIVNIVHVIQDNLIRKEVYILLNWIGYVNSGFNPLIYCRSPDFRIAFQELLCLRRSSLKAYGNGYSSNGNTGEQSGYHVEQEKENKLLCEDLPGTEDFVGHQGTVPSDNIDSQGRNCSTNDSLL
FGF22 binding: FGF22 (human) thermal shift binding. recombinant FGF22 thermal shift, SYPRO orange fluorescence; percent of sucrose octasulfate shift, DMSO zero. calls only at 9.99 µM. hit rate 1.5% among 340,000. AID 651658;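 active = melting point raised past a set limit in the mean and every replicate; three in four hits are not shown here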
HNF4A DNA FP: change in binding of human HNF4 alpha to DNA. hit rate 0.3% among 360,000. P41235. activity change, % at 10 µM. HNF4a-FITC DNA binding, fluorescence polarization, 1 h; in the data active = activity change above about 30%, passing the limit was not always enough;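 also: controls were the assay level and a saturating level of protein; the project sought stronger binding though the title names inhibitors; some compounds called inactive have numbers as strong as hits; positive values seem to mean higher polarization but the record does not say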
E coli growth: blocks Escherichia coli growth | AID 1053175 | OD600, 23 h; active compounds read low | OD600 absorbance (concentration not given with the values) | hit rate 0.21% among 330,000;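 active = OD600 absorbance below the run mean of sample wells minus 3.6 SD, in any replicate, cut at about 0.56 in these data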;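 also: stock transfer was 300 nL into about 60 µL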
LANA-H2A inh: blocks KSHV LANA binding to histone H2A/H2B; hit rate 0.6% among 320,000; AID 2629; cell-free LANA-H2A/H2B peptide, fluorescence polarization; inhibition, % (test concentration not listed); in the data active = inhibition mostly above about 10%, no sharp cut-off; inactive = mostly below about 6.7%;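 also: stock transfer was 7.5 nL into about 10 µL; 0% = median of vehicle wells and 100% = median of positive control wells; one replicate is shown; the record names a cut of 25% in any replicate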
UCH37 DUB inh: human UCH37 deubiquitinating enzyme inhibition. hit rate 0.33% among 330,000. purified proteasome/UCH37, Ub-AMC cleavage fluorescence. Q9Y5K5. inhibition, % (concentration not given with the values);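 active = mean of two replicates above 20%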;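 also: 0% = compound-free wells with enzyme and 100% = wells lacking proteasome; stock transfer was 100 nL into about 20 µL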
Target sequence (Q9Y5K5 whole entry, looked up): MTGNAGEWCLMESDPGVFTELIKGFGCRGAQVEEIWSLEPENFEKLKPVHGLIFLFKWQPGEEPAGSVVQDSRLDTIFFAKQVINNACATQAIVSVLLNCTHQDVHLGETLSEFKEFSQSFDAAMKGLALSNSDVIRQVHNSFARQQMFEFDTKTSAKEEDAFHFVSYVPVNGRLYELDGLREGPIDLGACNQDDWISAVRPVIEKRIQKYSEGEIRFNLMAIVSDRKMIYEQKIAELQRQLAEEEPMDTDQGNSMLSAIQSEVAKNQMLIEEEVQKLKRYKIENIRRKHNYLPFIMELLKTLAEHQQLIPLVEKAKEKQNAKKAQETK
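Material: Human UCH37 enzyme supplied as purified proteasome complex | Schedule: 30 min preincubation with enzyme, 25 min cleavage at room temperature | Detection: AMC fluorescence 355/460 nm | Measure: % inhibition of Ub-AMC cleavage fluorescence | Controls: Wells without proteasome as full block, compound-free enzyme plus substrate as uninhibited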
Starred values were filed as active, the others as inactive; i = inactive; x = no result given. These rows are one share of the data (hit frequency here may not be typical).

SMILES	ALR inh	B2AR ag	FGF22 binding	HNF4A DNA FP	E coli growth	LANA-H2A inh	UCH37 DUB inh
NC(=O)CC(NC(=O)Cc1ccc(Br)cc1)c1ccc(NCCN2CCCCC2)c([N+](=O)[O-])c1 (centres undefined)	0	-4	i	3.4	0.64	-1.9	3.0
CCOC(=O)CSc1nnc(Cc2ccccc2)n1-c1ccc(C)cc1	-5	17	x	4.5	0.74	3.1	-0.4
O=C(CN(C(=O)Cn1nnc(-c2ccc(F)cc2)n1)C1CCCC1)NC1CCCC1	-5	-3	x	8.8	0.72	-3.9	-1.3
O=C(Nc1ccccc1OC(F)F)c1oc2ccccc2c1COc1ccccc1	2	7	x	0.5	0.67	-1.9	-23
Cc1ccc(S(=O)(=O)NC(=O)Nc2cccc(C)n2)cc1	-13	-5	i	-2.6	0.66	1.4	-1.6
COc1cc(-c2c(C#N)c(N)nc(SCc3ccncc3)c2C#N)cc(OC)c1OC	6	0	i	-0.4	0.67	-0.7	0.7
Cc1ccc(NC(=O)CC(C)CC(=O)NCc2ccccc2)cc1Cl (centres undefined)	-5	9	i	-1.8	0.73	-4.6	3.7
CC1(C)OC(=O)C(=NNc2ccccc2)C(=O)O1	-4	3	x	4.0	x	-0.2	x
COc1cc(C=O)ccc1OC(=O)c1ccc(C(C)C)cc1	x	7	x	-0.3	0.67	-3.2	0.1
CCOC(=O)c1sc2nc(C(C)C)c3c(c2c1N)CCC3	-1	-8	x	-0.5	0.63	-2.6	-285
CCCOc1c(OC)cccc1C1CC(=O)Nc2cc(OC)c(OC)c(OC)c21 (centres undefined)	-11	1	x	-1.8	0.72	-3.4	5.1
O=C(NCCc1cccc(Cl)c1)c1cccc([N+](=O)[O-])c1	0	-4	x	17	0.66	2.7	-0.2
CCOC(=O)C1CCN(S(=O)(=O)c2ccc3[nH]c(=O)oc3c2)CC1	-2	6	i	2.5	0.77	-1.3	3.8
O=C(CCN1C(=O)C2C3CCC(C3)C2C1=O)Nc1ccc([N+](=O)[O-])cc1 (centres undefined)	2	-10	i	3.7	0.69	-1.0	8.7
CC(C)NC(=O)CC(=O)N/N=C/c1ccc(F)cc1	-8	-3	x	3.0	x	-0.8	x
CCNc1nc(NCC)nc(OCCNS(=O)(=O)c2cc(C)ccc2C)n1	-14	0	x	2.5	0.66	6.0	-1.1
COc1ccc(NC(=O)CSc2nc3ccccc3c(=O)n2CCCN2CCOCC2)c(OC)c1	-26	2	i	2.5	0.65	-0.1	1.5
O=S(=O)(NCCSc1nc2ccccc2o1)c1ccccc1	x	-33	x	-2.6	0.72	1.5	5.0
Cn1nnc(NC(=S)NC(=O)c2cccc3ccccc23)n1	-1	2	i	0.8	x	6.3	x
CCOC(=O)C1CCN(C(=O)COC(=O)C23CC4CC(CC(C4)C2)C3)CC1	-2	6	i	-0.2	0.65	-2.7	0.2
CCOc1ccc(CCNC(=O)CSc2cc(=O)n(C)c3ccccc23)cc1OCC	2	-11	x	2.8	x	1.0	3.5
COC(=O)CNc1nc(Cl)nc(N2CCC(C)CC2)n1	-3	-4	i	-1.2	0.68	-5.0	5.0
CN(C)/C=C/C(=O)c1cnc2n(c1=O)CCS2	-1	0	i	3.3	0.64	4.3	8.7
S=C(Nc1ccc2nc(-c3ccccn3)c(-c3ccccn3)nc2c1)N1CCCCCC1	x	1	i	-2.6	0.73	1.8	2.5
Cc1cc(C)nc(SC2CCCCC2O)n1 (centres undefined)	-3	-14	x	-2.4	0.58	10	0.3
COC(=O)NCCOC(=O)N(O)c1ccc(Br)cc1	15	-5	i	-4.2	0.66	-1.0	-0.5
Cc1ccc(S(=O)(=O)N2CCN(C(=O)CCCOc3ccc(Cl)cc3C)CC2)cc1	-4	15	i	-1.2	0.71	-0.2	3.5
COc1ccc(S(=O)(=O)N2CCOCC2)cc1C(=O)NC1CCCCCC1	x	-4	i	0.8	0.72	2.4	4.2
Nc1nc(N2CCN(C/C=C/c3ccccc3)CC2)nc2ccccc12	-12	-8	x	1.6	0.69	-4.4	-31
COc1ccc(-c2csc(-c3ccc(O)cc3)n2)cc1	-4	-13	i	0.2	0.66	0.5	1.9

Molecules shown so far that contain an aryl thioether with sulfur outside any ring (six):
SMILES	ALR inh	B2AR ag	FGF22 binding	HNF4A DNA FP	E coli growth	LANA-H2A inh	UCH37 DUB inh
CCOC(=O)CSc1nnc(Cc2ccccc2)n1-c1ccc(C)cc1	-5	17	x	4.5	0.74	3.1	-0.4
COc1cc(-c2c(C#N)c(N)nc(SCc3ccncc3)c2C#N)cc(OC)c1OC	6	0	i	-0.4	0.67	-0.7	0.7
COc1ccc(NC(=O)CSc2nc3ccccc3c(=O)n2CCCN2CCOCC2)c(OC)c1	-26	2	i	2.5	0.65	-0.1	1.5
O=S(=O)(NCCSc1nc2ccccc2o1)c1ccccc1	x	-33	x	-2.6	0.72	1.5	5.0
CCOc1ccc(CCNC(=O)CSc2cc(=O)n(C)c3ccccc23)cc1OCC	2	-11	x	2.8	x	1.0	3.5
Cc1cc(C)nc(SC2CCCCC2O)n1 (centres undefined)	-3	-14	x	-2.4	0.58	10	0.3

Structures shown so far containing bromine:
SMILES	ALR inh	B2AR ag	FGF22 binding	HNF4A DNA FP	E coli growth	LANA-H2A inh	UCH37 DUB inh
NC(=O)CC(NC(=O)Cc1ccc(Br)cc1)c1ccc(NCCN2CCCCC2)c([N+](=O)[O-])c1 (centres undefined)	0	-4	i	3.4	0.64	-1.9	3.0
COC(=O)NCCOC(=O)N(O)c1ccc(Br)cc1	15	-5	i	-4.2	0.66	-1.0	-0.5

(listing goes on)
SMILES	ALR inh	B2AR ag	FGF22 binding	HNF4A DNA FP	E coli growth	LANA-H2A inh	UCH37 DUB inh
COC(=O)c1ccc(NC(=O)c2cc[n+](Cc3ccccc3)cc2)cc1	5	1	i	0.2	0.7	-1.5	2.5
COc1ccc(/C=C2\CN(Cc3ccccc3)C/C(=C\c3ccc(OC)c(O)c3)C2=O)cc1O	x	33	i	1.3	x	5.5	x
c1ccc(-c2csc(-n3cnnn3)n2)cc1	-10	9	x	2.2	0.67	1.9	2.6
O=C(Nc1cccc(Cl)c1)N1CCSc2cc(Cl)ccc21	2	9	x	0.9	0.66	-1.3	4.6
CCOC(=O)c1ccc(NC(=O)NNS(=O)(=O)c2cc(OC)ccc2OC)cc1	19	3	i	1.4	0.66	5.1	-0.7
NCCCC[C@H]1CNC(=O)C(=O)N1CCCCC1CCCCC1	-11	-1	i	0.6	x	5.5	-1.0
O=C(CC1NC(=O)NC1=O)NC1(C(=O)NC2CCCCC2)CCCCC1 (centres undefined)	3	-5	x	3.9	0.71	-3.3	0.9
Cc1c(C)n(CCc2ccccc2)c2ncnc(NN)c12	x	-22	i	-1.0	0.68	0.4	1.4
CCN1CCc2c(sc(NC(=S)NC(=O)c3ccccc3)c2C#N)C1	33	-35	x	9.2	0.67	2.7	4.3
CCCNC(=O)c1c(N)n(-c2ccc(S(N)(=O)=O)cc2)c2nc3ccccc3nc12	-14	-1	x	-0.6	x	2.1	x
CC1CCC2(CC1)NC(=O)N(CC(=O)NCc1cccs1)C2=O (centres undefined)	-5	-2	i	2.0	0.68	4.4	2.9
Cc1cccc(NC2CNC(=O)NC2=O)c1 (centres undefined)	x	-2	i	-1.1	0.67	x	0.3
COc1cc(C2CC(c3cccnc3)=NN2c2ccc(F)cc2)cc(OC)c1OC (centres undefined)	31	-5	i	1.9	0.7	-0.7	-464
N#C/C(=C\c1c[nH]c2ccccc12)C(=O)Nc1ncc(Cc2ccc(Cl)cc2Cl)s1	3	0	i	9.1	0.7	-0.3	-6.8
CCOC(=O)CCN	10	6	i	-2.9	0.67	-0.6	-2.7
CCSc1nnc(C)c2ccccc12	-5	-2	x	0.0	0.64	5.4	1.4
CCOc1ccc(-c2[nH]ncc2-c2ccc(Cl)cc2)c(O)c1	4	-3	i	-0.9	0.64	1.0	1.1
N/C(=N\OC(=O)CSc1ccccc1)c1ccc([N+](=O)[O-])cc1	-7	13	i	6.2	x	-6.1	x
O=[N+]([O-])c1ccc(/C=N/NC(=S)Nc2ccccc2C(F)(F)F)o1	x	0	x	0.3	x	-1.5	x
Cc1ccc(-c2nnn(CC(=O)N(CC(=O)NC3CCCC3)c3ccc(F)c(Cl)c3)n2)o1	-2	-7	x	-0.1	0.74	-6.8	-3.5
Cc1cc(CSc2ccccc2)ccc1NC(=O)c1ccc(Br)cc1	-3	14	i	1.9	0.74	0.3	5.6
CSc1ccc(CN(C)C(=O)CN2C(=O)NC3(CCCC3)C2=O)cc1	-8	-2	i	1.3	0.65	1.0	2.2
COc1cc(C2C3=C(CCCC3=O)Nc3[nH]n(-c4ccccc4)c(=O)c32)cc(OC)c1OC (centres undefined)	-3	1	i	0.7	0.68	-7.8	14
CCOC(=O)c1c(NC(=O)CSc2n[nH]c(N)n2)sc(CC)c1C	-6	6	x	0.7	0.64	6.6	3.1
CC(=O)c1ccccc1NC(=O)CSc1nnc2ccccn12	1	x	x	x	0.69	1.0	8.0
COc1ccc(S(=O)(=O)N2CCCCC2)cc1NC(=O)Cn1cnc2ccccc2c1=O	-2	7	i	-0.8	0.71	3.2	1.5
CC(Sc1nnc(-c2ccc(Cl)cc2)n1C)C(N)=O (centres undefined)	x	0	x	2.3	0.69	-4.8	1.2
CCCN1C(=O)C(NC(C)=O)c2ccccc21 (centres undefined)	11	2	x	1.6	0.71	8.1	1.0
CCn1c(SCC(=O)c2ccccc2)nnc1-c1cccnc1	91*	-4	i	36*	0.68	-2.5	1.4
CCN=C1S/C(=C/c2ccc(-c3ccc(Cl)cc3C(=O)O)o2)C(=O)N1CC	16	14	i	2.3	0.7	-3.1	-2.3

Among those listed so far, these contain a furan ring, fused or not:
SMILES	ALR inh	B2AR ag	FGF22 binding	HNF4A DNA FP	E coli growth	LANA-H2A inh	UCH37 DUB inh
O=C(Nc1ccccc1OC(F)F)c1oc2ccccc2c1COc1ccccc1	2	7	x	0.5	0.67	-1.9	-23
O=[N+]([O-])c1ccc(/C=N/NC(=S)Nc2ccccc2C(F)(F)F)o1	x	0	x	0.3	x	-1.5	x
Cc1ccc(-c2nnn(CC(=O)N(CC(=O)NC3CCCC3)c3ccc(F)c(Cl)c3)n2)o1	-2	-7	x	-0.1	0.74	-6.8	-3.5
CCN=C1S/C(=C/c2ccc(-c3ccc(Cl)cc3C(=O)O)o2)C(=O)N1CC	16	14	i	2.3	0.7	-3.1	-2.3

Additional compounds follow:
SMILES	ALR inh	B2AR ag	FGF22 binding	HNF4A DNA FP	E coli growth	LANA-H2A inh	UCH37 DUB inh
Cc1cc(NC(=O)CCC(=O)N(c2ccccc2)C(C(=O)NC2CCCC2)c2ccccc2)no1 (centres undefined)	-4	-2	x	-2.0	0.74	5.5	2.9
COc1cc(C(=O)Nc2ccc3c(c2)OCCO3)ccc1OC(C)C	x	-1	x	-2.4	0.75	x	4.4
COc1cccc(NC(=O)CCSc2ccc3ccccc3n2)c1	-5	-2	x	-0.7	0.68	2.2	3.7
Cc1cccc(/C=N/NC(=O)c2ccc(NC(=O)c3cccc(Cl)c3)cc2)n1	-8	6	i	2.4	x	-2.7	x
Cc1ccccc1OCC(O)CN1CCN(CC(O)COc2ccccc2C)C(C)C1 (centres undefined)	1	10	i	-1.9	0.64	-2.7	2.7
O=c1cc(C(F)(F)F)nc(-c2ccccc2OC(F)(F)F)[nH]1	0	3	i	6.6	0.67	-1.0	4.1
